H5N1 CPE = antiviral screen in MDCK cells, H5N1 avian flu; cytopathic effect, luminescence, 72 h; hits give high values; no value below 0 was filed and about half of the inactive calls have no number; reference of the scale not given here; inhibition, % at 50 µM; 96,000 compounds, 0.07% hits; AID 740; in the data active = inhibition above about 25%
* = called active by the depositor; i = inactive.

SMILES	H5N1 CPE
O=S(=O)(Nc1nccs1)c1cc(Cl)ccc1Cl	0.1
O=C(NNC(=O)C1CCN(Cc2ccccc2)CC1)c1cccc(Cl)c1	i
CCOC(=O)CSc1ncc(OC)c(Sc2ccc(OC)cc2)n1	i
CCCCS(=O)(=O)/C=C\C=C/S(=O)(=O)CCCC	i
CS(=O)(=O)Nc1ccccc1C(=O)NC1CC2CCC1C2 (stereo not drawn)	0.7
CCOC(=O)c1c(C=O)c(C)n(Cc2ccc(C)cc2)c1C	i
O=S(=O)(Nc1ncccc1O)c1ccc(Cl)cc1	1.3
O=C(Cc1ccccc1)N1CCN(Cc2ccccn2)CC1	i
CCn1c(C)csc1=NC(=O)c1ccccc1	i
COc1cccc(NS(=O)(=O)c2ccc3[nH]cc(C(=O)N(C)Cc4ccco4)c(=O)c3c2)c1	1.5
O=C(NCc1ccco1)C(c1ccccc1)N(CC1CCCO1)C(=O)Cn1nnc2ccccc21 (stereo not drawn)	0.7
CC(C)CCN1CC(O)=C(c2nc(-c3ccc(Cl)cc3)cs2)C1=N	1.2
CN1/C(=C\C=[N+](C)c2ccccc2)C(C)(C)c2ccccc21	i
CC(c1ccccc1)n1c(NCCCn2ccnc2)nc2c1c(=O)[nH]c(=O)n2C (stereo not drawn)	1.2
COc1ccc(CCNc2c(C)c(C)nc3ncnn23)cc1	1.3
COc1ccc(S(=O)(=O)N/N=C(/C)c2ccc(Cl)cc2)cc1	i
CCOC(=O)c1c(NC(=O)CSc2nncn2C)sc(C)c1C	i
Nc1nnnn1/N=C/c1cc(Cl)cc(Cl)c1OCc1ccc(Cl)cc1Cl	i
COC(=O)c1ccc(Cn2nc(C)cc2C)cc1	0.1
O=C(Nc1ccccc1)c1ccc(S(=O)(=O)NCC2CCCO2)cc1 (stereo not drawn)	i
COC(=O)c1cc2occc2n1CC(=O)Nc1ccc(C)cc1C	1.3
O=S(=O)(c1ccccc1)c1nc(-c2ccco2)oc1NCCCn1ccnc1	2.6
CCCc1cc(C(=O)Nc2ccc(C(C)=O)cc2)no1	i
Cc1ccc(C(=O)Nc2cccc(C(=O)N3CCOCC3)c2)cc1	1.9
CSc1oc(-c2ccccc2)nc1C(N)=O	3.7
O=C(O)c1cc([N+](=O)[O-])ccc1C(=O)Nc1ccccc1	i
Cc1sc(NC(=O)c2ccccc2)c(C(=O)NC(C)C)c1C	i
O=C(Nc1cccc(C(F)(F)F)c1)N1CCC(c2nc(-c3ccc(F)cc3)no2)CC1	1.4
CC(=O)NCCn1c(SCC(=O)NCCC2=CCCCC2)nc2ccccc2c1=O	i
O=C(Cc1ccc(Br)cc1)N1CCN(c2ccccc2)CC1	0.4
O=C1S/C(=C/c2ccc(N3CCOCC3)o2)C(=O)N1Cc1c(F)cccc1Cl	i
CC(CC(=O)N1CCc2ccccc21)c1ccccc1 (stereo not drawn)	1.9
CC(=O)N1C(Nc2ccc(Cl)cc2)CCN1c1ccccc1 (stereo not drawn)	i
O=S(=O)(NCCc1cn2ccccc2n1)c1ccc2c(c1)OCCO2	i
COc1ccc(NC(=O)CSc2ncnc3c2cnn3CCc2ccccc2)cc1	i
CCc1ccc(N2CC(C(=O)Nc3cccnc3)CC2=O)cc1 (stereo not drawn)	i
Cc1ccccc1NC(=O)c1csc2c1CCCC2	0.8
Cc1cc(C(=O)Nc2c(C)n(C)n(-c3ccccc3)c2=O)cs1	29*
CCN(CC)CCNS(=O)(=O)c1ccc(OC)c(Br)c1	0.6
Cn1cc(S(=O)(=O)NCc2cccs2)c(=O)n(C)c1=O	0.7
CCn1c(N2CCN(S(=O)(=O)c3ccccc3C(F)(F)F)CC2)nc2ccccc21	2.9
Cc1ccc(S(=O)(=O)N2CCOCC2)cc1NC(=O)c1cc2c(s1)CCC2	0.2
O=C(c1ccc(CNS(=O)(=O)c2ccccc2)cc1)N1CCN(Cc2ccccc2)CC1	0.3
O=C(c1c[nH]c(=O)n(-c2ccccc2)c1=O)N1CCc2ccccc21	i
COc1ccc(C(=O)NC(=S)Nc2ccccc2N2CCN(S(C)(=O)=O)CC2)cc1OC	3.5
Cc1cc(C)n(C(=O)c2ccc(NC(=O)C3CC3)cc2)n1	0.9
CCCS(=O)(=O)N1CCCC(C(=O)NCCN(CC)c2ccccc2)C1 (stereo not drawn)	0.2
O=C(CN1CCOc2ccccc21)NC1CCN(Cc2ccccc2)CC1	0.1
Cc1nc2ccccc2nc(C)c1=NO	0.1
O=C(NC1CCSC1=O)c1ccccc1 (stereo not drawn)	0.2
O=C1CN(C(=O)CSc2nnc(-c3ccccc3)n2Cc2ccc3c(c2)OCO3)c2ccccc2N1	1.1
CCC(=O)n1nc(-c2ccccc2)nc1SCC(=O)Nc1ccc(C)cc1	0.6
O=C(NC1CCCCC1)[C@H](O)[C@@H](O)C(=O)NC1CCCCC1	0.0
CS(=O)(=O)N(CC(=O)Nc1cccc(F)c1)Cc1ccccc1	2.4
O=C(Nc1cccc(Cn2cccn2)c1)c1cc2c(s1)CCCC2	i
CCc1ccc(NC(=O)c2ccc3nc(N)sc3c2)cc1	i
COc1ccc(C(=O)c2ccc(Cl)cc2)cc1	0.5
Cc1cc(NC(=O)CSc2nc3c(c(-c4cccnc4)c2C#N)CCC3)no1	1.1
Cc1cc(-c2ccccc2)c2c3c(c(-c4ccccc4)n2n1)c(=O)n(C)c(=O)n3C	i
CN(C)S(=O)(=O)c1ccc(NC(=O)COC(=O)c2n[nH]c3ccccc23)cc1	1.9

Overlap with the part before: two entries, followed by the next part.
SMILES	H5N1 CPE
Cc1cc(-c2ccccc2)c2c3c(c(-c4ccccc4)n2n1)c(=O)n(C)c(=O)n3C	i
CN(C)S(=O)(=O)c1ccc(NC(=O)COC(=O)c2n[nH]c3ccccc23)cc1	1.9
COc1ccc2c(c1)c1ncn(CCc3ccccc3)c(=O)c1n2C	i
CN(C)CCNC(=O)c1ccc(CS(=O)(=O)c2c(Cl)cccc2Cl)o1	1.1
COc1ccc(CCNC(=O)c2c(-c3ccccc3)noc2C)cc1OC	0.3
COc1cc(C(=O)N(Cc2ccco2)Cc2cc3ccccc3[nH]c2=O)cc(OC)c1OC	i
Cc1ccc(C)c(Cn2nnc3c(=O)[nH]c(C(=O)NCC4CCCO4)nc32)c1 (stereo not drawn)	i
O=S(=O)(c1ccc2ccccc2c1)N1CCCOC1	0.3
CCOc1ccc(Nc2ncnc3c2cnn3Cc2ccccc2)cc1	i
CC(C)N(C(=O)Nc1ccc2nccnc2c1)C(C)C	4.2
Cc1ccccc1OC/C(O)=C(\C#N)c1nc2ccccc2[nH]1	i
O=C(Nc1cc2c(oc1=O)CCCC2=O)c1cccc(Cl)c1	1.1
Cn1nc(CC(=O)Nc2ccc3c(c2)OCCO3)c2ccccc2c1=O	2.9
CCOC(=O)N1CCN(C(=O)C2CCCN(c3nc4ccc(OCC)cc4s3)C2)CC1 (stereo not drawn)	0.1
O=C(NC12CC3CC(CC(C3)C1)C2)N1CCN(S(=O)(=O)c2ccc(Cl)cc2)CC1	7.5
COc1ccc(CCC(C)NC2C3CC4CC(C3)CC2C4)cc1 (stereo not drawn)	i
CCc1ccc(NC(=O)CCn2ccnc2C)cc1	0.4
COc1ccc(C2SCC(=O)Nc3c2c(C)nn3-c2ccccc2)cc1 (stereo not drawn)	0.3
Cc1ccc(N2C(=O)C(c3c(C)[nH]n(-c4ccccc4)c3=O)(C(F)(F)F)C3=C2CC(C)(C)CC3=O)cc1 (stereo not drawn)	1.0
CC1(C)Cc2c(sc3nc(SCC(=O)N4CCOCC4)nc(N)c23)CO1	i
CCCc1nc2n[nH]c(N)c2c2c1COC(C)(C)C2	i
COc1cc2cc(C(c3nnnn3C3CCCCC3)N(C)C3CCCCC3)c(=O)[nH]c2cc1OC (stereo not drawn)	i
CSc1nnc2n(C)c3c(c(=O)n12)C1(CCCC1)Cc1ccccc1-3	1.3
Cc1cc(C)n(-c2ccc(Cl)c(C(=O)OCC(N)=O)n2)n1	i
CN(C(=O)C1CCOC1)c1nnc(-c2cnccn2)s1 (stereo not drawn)	0.8
CCOc1ccc(Cc2c(Cl)nc(SC)nc2OC)cc1	i
Cc1ccc(S(=O)(=O)N(CC(O)CN(C)C)c2ccccc2)cc1 (stereo not drawn)	0.9
Cc1csc(NC(=O)CCc2ccc(S(=O)(=O)N3CCOCC3)cc2)n1	0.7
CCOC(=O)N1CCN(C(=S)Nc2cccc(C)c2)CC1	0.6
O=C(NCc1ccc(Cl)cc1Cl)c1ccccn1	i
COc1ccc(-c2c(C)n([O-])c(C)c(-c3ccccc3)[n+]2=O)cc1OC	i
CC1(C)CC(=O)CC(C2(O)C(=O)N(Cc3ccccc3)c3ccccc32)O1 (stereo not drawn)	i
COc1ccccc1NS(=O)(=O)CC12CCC(CC1=O)C2(C)C (stereo not drawn)	0.3
COc1ccc(/C=N/NC(=O)CC(=O)NCc2cccnc2)cc1	i
O=C(C1CCCN(Cc2ccccc2)C1)N1CCc2ccccc2C1 (stereo not drawn)	i
Cc1ccc(OC(C)C)c(CN(CCO)CCO)c1	i
Cc1noc(C)c1COC(=O)c1cc(C)n(-c2ccccc2)c1C	1.7
CC(C)CCSc1ncnc2c1oc1nc3c(cc12)COC(C)(C)C3	i
COc1ccc(NC(=O)C2C3CCC(C3)C2C(=O)O)cc1OC (stereo not drawn)	1.1
CCN1CCN(C(=O)COc2cc(=O)n(CC)c3ccccc23)CC1	0.3
Cc1ccc2c(n1)sc1c(-c3ccccc3)c(C#N)c(N)nc12	1.1
c1ccc(Cn2nnnc2CN2CCN(c3ncccn3)CC2)cc1	0.5
COc1ccc(NC(=O)c2ccccc2NC(=O)C2CCCO2)cc1 (stereo not drawn)	1.6
COc1ccc(CC(=O)OCCN(C)C)cc1	0.4
Cc1cc(-c2ccccc2)n(-c2ccc(C(=O)N3CCN(c4ncccn4)CC3)cc2)n1	i
COCc1[nH]nc2c1C(c1cc(OC)c(O)c(OC)c1)C(C#N)=C(N)O2 (stereo not drawn)	i
CC1CCCC(NS(=O)(=O)c2ccc3c(c2)OCCO3)C1C (stereo not drawn)	1.2
Cc1cc(/C=C2\SC(=S)NC2=O)c(C)n1C	0.7
Cc1ccc(C(=O)Nc2ccccc2Oc2ccccc2)cc1[N+](=O)[O-]	i
COc1ccc(C2C(C#N)=C(N)Oc3cc(C)n(CCN4CCOCC4)c(=O)c32)cc1OC (stereo not drawn)	i
NC(=O)C1(N2CCCCC2)CCN(C(=O)CSc2nc(C(F)(F)F)cc(=O)[nH]2)CC1	1.1
CN1C(=O)Cn2c1nc1ccccc12	i
COc1ccc(OC)c(-n2c(SCC(=O)Nc3cc(C)on3)nnc2-c2c[nH]c3ccccc23)c1	26*
Cc1nnsc1SC(C)C(=O)O (stereo not drawn)	i
CCCCOC(=O)Nc1cccc(C(C)=O)c1	i
Nc1c(C(=O)Nc2ccc(F)cc2)sc2nc(-c3ccco3)ccc12	0.9
COCCCNC(=S)NNC(=O)c1ccc2c(c1)OCO2	0.8
CCSc1nnc(NC(=O)c2cc(C)nc3ccccc23)s1	0.2
COC(=O)CN(c1ccccc1F)S(=O)(=O)c1ccccc1	i
O=C(CCC1CCCC1)N1CCN(C(=O)c2cccnc2)CC1	0.9
O=C1CCC(=O)N1CCCCCc1nc(-c2ccccc2)no1	1.2
CCn1c(SCC(=O)N2CCCc3ccccc32)nc2c1c(=O)n(C)c(=O)n2C	1.1

Next section
SMILES	H5N1 CPE
CC(C)(C)OC(=O)N1CCC[C@H]1c1nnc(SC/C=C/c2ccccc2)o1	0.1
COc1cccc(OC)c1OCCNC(C)(C)C	i
CCC(=O)Nc1c(C(=O)Nc2cccc(OC)c2)oc2ccccc12	i
CCC(=O)Nc1ccc(C(=O)Nc2cccnc2)cc1	1.3
CCOc1ccc(C2CC(c3ccccc3C)n3ncnc3N2)cc1 (stereo not drawn)	2.0
COc1ccccc1C(=O)Nc1nc2nc(-c3ccccc3)cc(=O)n2[nH]1	0.4
COc1nnc(-c2ccc(N3CCOCC3)c(NC(=O)c3ccccc3)c2)c2ccccc12	1.0
Cc1nc(SCC(=O)N2CCN(c3ccccc3)CC2)c2oc3ccccc3c2n1	i
O=C(c1ccco1)N1CCN(/C(=N/S(=O)(=O)c2cccs2)c2ccccc2Cl)CC1	3.4
O=C(Nc1ccc2nc(SCc3ccc(Cl)cc3)sc2c1)c1ccccc1C(=O)N1CCOCC1	i
COc1ccc(OC)c(NC(=O)C2=C(C)Nc3ncnn3C2c2cccs2)c1 (stereo not drawn)	i
COc1ccccc1NC(=O)Cc1noc(CSc2cccc[n+]2[O-])n1	i
COc1cccc(C2CC(C(F)(F)F)n3nc(C(=O)NCc4cccnc4)cc3N2)c1 (stereo not drawn)	i
O=C(OCC#CCSc1nnc(-c2cccc3ccccc23)o1)c1ccco1	i
Cc1ccc(S(=O)(=O)NC(=O)Nn2c(C)nnc2C)cc1	i

Of the compounds above, 14 have two or more sulfur atoms.
SMILES	H5N1 CPE
O=S(=O)(Nc1nccs1)c1cc(Cl)ccc1Cl	0.1
CCOC(=O)CSc1ncc(OC)c(Sc2ccc(OC)cc2)n1	i
CCCCS(=O)(=O)/C=C\C=C/S(=O)(=O)CCCC	i
CCOC(=O)c1c(NC(=O)CSc2nncn2C)sc(C)c1C	i
Cn1cc(S(=O)(=O)NCc2cccs2)c(=O)n(C)c1=O	0.7
Cc1ccc(S(=O)(=O)N2CCOCC2)cc1NC(=O)c1cc2c(s1)CCC2	0.2
COc1ccc(C(=O)NC(=S)Nc2ccccc2N2CCN(S(C)(=O)=O)CC2)cc1OC	3.5
CC1(C)Cc2c(sc3nc(SCC(=O)N4CCOCC4)nc(N)c23)CO1	i
Cc1csc(NC(=O)CCc2ccc(S(=O)(=O)N3CCOCC3)cc2)n1	0.7
Cc1cc(/C=C2\SC(=S)NC2=O)c(C)n1C	0.7
Cc1nnsc1SC(C)C(=O)O (stereo not drawn)	i
CCSc1nnc(NC(=O)c2cc(C)nc3ccccc23)s1	0.2
O=C(c1ccco1)N1CCN(/C(=N/S(=O)(=O)c2cccs2)c2ccccc2Cl)CC1	3.4
O=C(Nc1ccc2nc(SCc3ccc(Cl)cc3)sc2c1)c1ccccc1C(=O)N1CCOCC1	i

Compound activity as filed in PubChem BioAssay.

A portion of the library (hit frequency here may not be typical).
